# Bioassay records (PubChem)
# StopGo FLuc: FMDV 2A StopGo reporter, firefly signal. Potency, µM (titrated, usually from 57.5 µM), without a hit: at the top dose signal change, negative = less light. 120,000 tested, 0.23% active. HEK cells with a luciferase reporter of 2A StopGo recoding; active = well fitted falling curve with a large enough effect; inconclusive = small, poorly fitted or top-dose-only effect; inactive = no such curve, though single readings can be large or run the other way; further: nearly all actives have a fitted effect of over 60% in size; overnight with compound
# 2A Renilla: FMDV 2A StopGo reporter, Renilla signal; Potency, µM (titrated, usually from 57.5 µM), without a hit: top-dose signal change, negative = less light; 120,000 tested, 0.32% active; HEK cells with a luciferase reporter of 2A StopGo recoding; active means well fitted falling curve with a large enough effect; inconclusive means small, poorly fitted or top-dose-only effect; inactive means no such curve, though single readings can be large or run the other way; further: nearly all actives have a fitted effect of over 55% in size; overnight with compound
# * = called active by the depositor; u = inconclusive; & = joins results of further samples; [ ] = another dose, or the depositor's remark. On the % scale 0 is the no-effect control and ±100 the full control effect; potency means the concentration at half of the fitted maximal effect.
Structure,StopGo FLuc,2A Renilla
Cc1ccccc1NC(=O)c1nc(S(C)(=O)=O)ncc1N(Cc1ccco1)Cc1ccco1,16%,0%
Cc1ccccc1NC(=O)Cn1nc(-c2ccccc2)nc(Cc2ccccc2)c1=O,-12%,-4%
CCN(CC)CCNC(=O)c1ccc2c(=O)n3nc(Nc4cccc(Cl)c4C)sc3nc2c1,15%,29%
Cc1cccc(C)c1N=C1NN=C(c2ccc3c(c2)CC(C)N3S(C)(=O)=O)CS1 (stereo unspecified),27%,-17%
O=C(COC(=O)c1ccc(Oc2ccccc2)cc1)c1ccccc1,232%[activator],-1%
COCCn1c(N(C)Cc2ccccc2)nc2c1c(=O)n(C)c(=O)n2C,u,u
Cc1ccsc1CN(C(=O)COc1cccc(C)c1C)C1CCS(=O)(=O)C1 (stereo unspecified),0%,-5%
O=c1[nH]c(=O)n(Cc2ccccc2)c2nccc(-c3ccc(F)cc3)c12,8%,-2%
Cc1ccc(C(C(=O)NC2CCCCC2)N(C(=O)c2cnccn2)c2cccs2)cc1 (stereo unspecified),-6%,20%
CN(C)CCc1c[nH]c2ccc(O)cc12,-10%[22.9 µM],-14%[114 µM]
C/C(CC(C)(C)c1ccccc1)=N\N=C(N)N,u,u
COC(=O)c1cc(CNC(=O)C2Cc3ccccc3S2)ccc1OC (stereo unspecified),89%[activator],70%[activator]
CC1CCCCN1CCNC(=O)COCc1cc(-c2cccs2)on1 (stereo unspecified),-1%,-8%
COc1ccc(-c2nc3ccccc3o2)cc1NC(=O)c1ccccc1Cl,20%,-2%
Cc1nc(CN2C(=O)COc3ccc(S(=O)(=O)NC4CCC(C)CC4)cc32)no1 (stereo unspecified),-7%,56%[activator]
O=C(COC(=O)c1cccc(I)c1)c1ccc([N+](=O)[O-])cc1,-5%,-13%
COc1cccc(CNC(=O)Nc2c(NC3CCCC3)c3ccccc3oc2=O)c1,-13%,-3%
CC(C)N1CCC(NC(=S)Nc2ccccc2C(F)(F)F)CC1,10%,3%
Cc1oc(-c2ccc(C(=O)Nc3ccc(F)cc3F)cc2)nc1COc1ccccc1,28%,0%
Cc1ccc(C(=O)NC23CC4CC(CC(C4)C2)C3)cc1Cl,-5%,-7%
Cc1ccc(-n2ncc3c(NCc4ccccc4)ncnc32)cc1Cl,42%[activator],-4%
c1ccc(C2CCCN2Cc2nnc(-c3ccco3)o2)cc1 (stereo unspecified),2%,3%
Cc1c(CC(=O)NCCc2ccc(Cl)cc2)c(=O)oc2c(C)c3occ(C(C)(C)C)c3cc12,-11%,-5%
O=C(NO)c1ccccc1,65%[activator][115 µM],55%[activator][114 µM]
COc1ccc(Br)cc1C(=O)Nc1ccc2oc(-c3cccnc3)nc2c1,5%&6%,-2%&3%

# Looked up by structure from above, two records:
Structure,StopGo FLuc,2A Renilla
COc1ccc(Br)cc1C(=O)Nc1ccc2oc(-c3cccnc3)nc2c1,5%&6%,-2%&3%
Cc1ccsc1CN(C(=O)COc1cccc(C)c1C)C1CCS(=O)(=O)C1 (stereo unspecified),0%,-5%

# One compound at a time, as listed above:
# Cc1ccc(C(C(=O)NC2CCCCC2)N(C(=O)c2cnccn2)c2cccs2)cc1 (stereo unspecified) is listed as StopGo FLuc = -6%; 2A Renilla = 20%
# c1ccc(C2CCCN2Cc2nnc(-c3ccco3)o2)cc1 (stereo unspecified) is listed as StopGo FLuc = 2%; 2A Renilla = 3%

# (more compounds)
Structure,StopGo FLuc,2A Renilla
CCCCCCCOc1ccc(C(N)=O)cc1,0%,2%
Cn1c(C(=O)N2CCC(C(=O)NCCc3ccccc3)CC2)cc2sccc21,10%,9%
CCOc1ccc(NC(=O)c2c(NC(=O)CN3CCCC3)sc3c2CCC(C(C)(C)C)C3)cc1 (stereo unspecified),-7%,-15%
CC(C)S(=O)(=O)CC(=O)O,29%,10%
CCS(=O)(=O)N1CC(=O)N(c2ccc(C)c(C)c2)C(C)(C(=O)NC2CCCCC2)C1 (stereo unspecified),36%,-4%
COC(=O)c1cc(-c2ccc(F)cc2)nc2onc(C3CC3)c12,6%,-2%
COc1cc(NC(=O)c2ccc3c(c2)NC(=O)CS3)c(OC)cc1Cl,8%,0%
O=C1CSC(c2cccc(C(F)(F)F)c2)N1c1ccc(Br)cc1 (stereo unspecified),-15%,u
CCN1CCCC1CNCc1ccccc1 (stereo unspecified),1%,-2%
CC(C)N(Cc1ccccc1)C(=O)Cn1ncc2c([nH]c3ccccc32)c1=O,-17%,-16%
Cc1ccccc1S(=O)(=O)Cc1ccc(C(=O)NCCN2CCCC2)o1,-10%,-6%
O=C(Nc1ccc(Br)cc1F)N1CCC(CN2CCc3ccccc3C2)CC1,22%,-15%
CCc1cccc(NC(=O)C2CCCN(S(=O)(=O)c3cccs3)C2)c1 (stereo unspecified),-8%,161%[activator]
Cc1ccc2oc(-c3ccc(Cl)c(NC(=O)Cc4ccccc4)c3)nc2c1,69%[activator],4%
Cc1cccc(/C=C/c2onc(C)c2S(=O)(=O)N2CCC(C(=O)N3CCC(C)CC3)CC2)c1,13%,-9%
Cc1cccc(CSc2nc(=O)c3c(n2C)NC(=O)CC3c2cc(F)cc(F)c2)c1 (stereo unspecified),-2%,-4%
Cc1cccc(-c2nc(CCNC(=O)COc3ccccc3)cs2)c1,-18%,-4%
O=C(N/N=C/c1ccc([N+](=O)[O-])o1)c1cc([N+](=O)[O-])cc([N+](=O)[O-])c1O,-19%[11.5 µM],-10%
Cc1ccc(S(=O)(=O)N2CCN(C(C)c3nc4ccccc4c(=O)[nH]3)CC2)c(C)c1 (stereo unspecified),-6%,17%
COc1ccc(C(=O)N2CCN(C(=O)Cc3cc(OC)c(OC)c(OC)c3)CC2)cc1,-5%,-17%
CC(C)C12CN3CN(C1)CC(C(C)C)(C3)C2=O,23%,12%
CC(C)c1noc(COc2ccc(C(=O)NC3CCCC3)cc2)n1,-8%,-27%
Cn1c(=O)c2[nH]c(CN3CCN(C(=O)c4ccco4)CC3)nc2n(C)c1=O,1%,-6%
O=C(CCn1ccc2cc(S(=O)(=O)N3CCCC3)ccc21)NCc1ccccc1Cl,-16%,33%[activator]
CCOc1ccc(NC(=O)Cc2coc3ccc(C)cc23)cc1,34%[activator],58%[activator]
Cc1oc2ccc(O)c(CN3CCCCC3)c2c1C(=O)Nc1cccc(C(F)(F)F)c1,-29%,-21%
CCOc1ccc(-c2nc(CSCC(=O)NC3CCCC3)c(C)o2)cc1,u,u
O=C(Cn1c(=O)n(CCc2ccccc2)c(=O)c2c3c(sc21)CCCC3)Nc1ccc(F)c(F)c1,-13%,-7%
C=CCNC(=O)C(=O)NCc1cccc(OC)c1,81%[activator],9%
CCCCn1c(SCC(=O)NC(C)(C)C)nc2cc(C(=O)OC)ccc2c1=O,1%,-2%
O=c1oc2ccc(Br)cc2cc1S(=O)(=O)c1ccccc1,10%,-7%
Clc1ccccc1/C=N/C(/N=C/c1ccccc1Cl)c1ccccc1Cl,9%,16%
COc1ccc(S(=O)(=O)NCCc2csc3nc(-c4ccccc4)nn23)cc1OC,-15%,81%[activator]
CCOc1ccc(CNc2nc(NCc3ccc(OCC)cc3)n(C(=O)C(C)C)n2)cc1,-5%,11%
O=C(c1ccc(F)cc1)[C@@H]1[C@@H]2CCCN2[C@]2(C(=O)Nc3ccc(F)cc32)[C@@]12C(=O)Nc1ccccc12,-8%,-3%
Cc1nc(C)c(-c2csc(Nc3ccccc3C)n2)s1,38%[activator],u
CCC(C(=O)NCc1cccc(OC)c1)n1nc(C)n2c(cc3sccc32)c1=O (stereo unspecified),2%,30%
CN1CCN(CC(=O)Nc2cccc(C(=O)Nc3cccc(C(F)(F)F)c3)c2)CC1,-5%,1%
COCCN(CC(N)=O)S(=O)(=O)c1cc(F)ccc1C,0%,-8%
Cc1ccc(NC(=O)c2nccnc2N)cc1F,271%[activator],34%[activator]
Cc1noc(C)c1C(=O)Nc1sc2c(c1C(N)=O)CCC(C)C2 (stereo unspecified),0%,-2%
C=CCOc1ccc(Cl)cc1CNC1CCCC1,-10%,-7%
O=C(/C=C\c1ccc2c(c1)OCO2)NC1CC(=O)N(c2ccc(F)cc2)C1 (stereo unspecified),11%,-1%
COc1ccc(CNC(=O)c2nc(-c3ccc4[nH]ccc4c3)no2)cc1OC,-28%,-24%
COc1ccccc1NC(=O)C1=C(C)Nc2ncnn2C1c1ccccc1C(=O)O (stereo unspecified),-12%,-10%
Cc1ccc(-c2nc3sc(CCNC(=O)c4ccc(C)c(C)c4)c(C)n3n2)cc1,82%[activator],-5%
Cc1ccc(S(=O)(=O)c2nc(-c3cccs3)oc2SC(C)c2ccccc2)cc1 (stereo unspecified),-1%,219%[activator]
O=C(COc1ccc(Cl)cc1)Nc1nc2n(n1)C(c1ccccc1)CC(=O)N2 (stereo unspecified),-4%,-15%
COc1ccc(CNC(=O)C(C)Cl)cc1 (stereo unspecified),-20%,-14%
CCCNC(=O)c1ccc(-n2c(-c3ccccc3)cc3c2CCC(C)C3)cc1 (stereo unspecified),-15%,u

# Further results:
Structure,StopGo FLuc,2A Renilla
CCOC(=O)c1cnc2c(ccc3ccccc32)c1Nc1ccccc1OCC,2%,7%
Cc1ccc(S(=O)(=O)C(CNS(=O)(=O)c2cc(F)ccc2F)c2cccs2)cc1 (stereo unspecified),-20%,195%[activator]
CCc1nn(CC(=O)NC(C)c2ccccc2)c(=O)c2cc3sccc3n12 (stereo unspecified),0%,-5%
Cc1nnc(NCc2ccc(F)cc2)c2c1nnn2Cc1ccccc1Cl,-21%,-12%
COC(=O)c1ccccc1NC(=O)CSc1nc2sc3c(c2c(=O)[nH]1)CCCC3,-6%,-16%
CC1(C)CCc2cc3c4c(/c(=N\O)oc3cc2O1)CCCC4,31%[activator],9%
CCCn1c(=O)n(CC(=O)Nc2ccc(N3CCCCCC3)cc2)c(=O)c2c1nc(C)n2CCOC,5%,-2%
NC(=O)c1ccc(NC(=O)CCc2ncc(-c3ccccc3F)o2)cc1,38%[activator],-4%
Cc1ccc(-n2c(/C=C/c3c(C)n(C)c4ccccc34)nc3ccccc3c2=O)cc1,-10%,5%
Cc1ccc(C)c(Nc2cc(C(=O)NC3CCCC3)c3ccccc3n2)c1,140%[activator],-5%
Cc1nnc(N2CCN(c3cccc(Cl)c3)CC2)c2c1nnn2Cc1ccc(F)cc1,13%&-10%,12%&8%
CCCC(C)NC(=O)c1cccs1 (stereo unspecified),0%,3%
Cc1ccc(OCC(=O)OC2=C(C(=O)c3ccccc3)N(C)S(=O)(=O)c3ccccc32)cc1,-6%,9%
Cc1cc(C)c(S(=O)(=O)Nc2cccc(-c3cn4ccc(C)cc4n3)c2)c(C)c1,61%[activator],103%[activator]
O=C(c1cccnc1)N1CCN(Cc2c[nH]c3ccccc23)CC1,-2%,-7%
COC(=O)c1cc(S(=O)(=O)N(C)CC(=O)Nc2ccc(Br)c(C)c2)cn1C,u,u
COc1ccc(C(=O)CN2C(=O)N(c3cc(C)cc(C)c3)S(=O)(=O)c3ccccc32)cc1,-1%,39%[activator]
COc1ccc(C(=O)c2ccccc2)c(OC)c1,24%,13%
Cc1nc(Nc2ccc(NC(=O)c3cccs3)cc2)cc(N2CCOCC2)n1,-3%,10%
NC(=O)c1ccc(NC(=O)CCc2ncc(-c3c(F)cccc3F)o2)cc1,9%,2%
COc1ccc(-c2nsc(NC(=O)c3ccccc3Br)n2)cc1,86%[activator],17%
Cn1c(SCC(=O)N2CCCc3ccccc32)ncc(C(=O)Nc2ccccc2)c1=O,6%,1%
COc1ccc(NC(=O)CSc2nc(-c3ccco3)cc(C(F)(F)F)n2)cc1,29%,23%
COc1ccc2cc(C(=O)N3CCN(c4cccc(C)c4C)CC3)c(C)nc2c1,-7%,2%
COCC(=O)Oc1c(Sc2ccc(C)cc2)c(C)nn1C(C)(C)C,-18%,-8%

# Next section (3 carried over from the part before).
Structure,StopGo FLuc,2A Renilla
COc1ccc(NC(=O)CSc2nc(-c3ccco3)cc(C(F)(F)F)n2)cc1,29%,23%
COc1ccc2cc(C(=O)N3CCN(c4cccc(C)c4C)CC3)c(C)nc2c1,-7%,2%
COCC(=O)Oc1c(Sc2ccc(C)cc2)c(C)nn1C(C)(C)C,-18%,-8%
O=C(Nc1cccc2cccnc12)C1(c2ccccc2)CCC1,18%,25%
COc1ccc(NC(=O)C(Cc2ccccc2)NS(=O)(=O)c2ccc3c(c2)CCC(=O)N3)c(OC)c1 (stereo unspecified),-4%,34%[activator]
CC(=O)NCc1ccc(-c2nc(-c3cccc(C)c3)sc2C)s1,126%[activator],2%
CCc1cccc(CC)c1NC(=O)CCc1ncc(-c2ccccc2)o1,-15%,-21%
Cc1oc2ccc(O)c(CN3CCCCCC3)c2c1C(=O)Nc1cccc(C(F)(F)F)c1,-19%,-7%
C/C=C(\C)C(=O)OC1Cc2c(ccc3ccc(=O)oc23)OC1(C)C (stereo unspecified),-16%,-6%
CCOC(=O)CSC(C)C(=O)NCC1CCCCC1 (stereo unspecified),-8%,-9%
Cc1ccc(C)c(NS(=O)(=O)c2ccc3c4c(cccc24)C(=O)N3)c1,u,-10%
CCn1c(C)c(C)c2cc(C(=O)NCc3ccc(F)cc3)ccc21,-1%,36%[activator]

# Some of the compounds tested; the hit share may differ from the screen's.
